# Screening data: PubChem BioAssay, Johns Hopkins Ion Channel Center
# KCNQ2 block = KCNQ2 potassium channel inhibitors, primary screen, cell-based, CHO-K1, FluxOR thallium flux, B-score (AID 2156); Potassium voltage-gated channel subfamily KQT member 2 (Rattus norvegicus), O88943; 20 min; active compounds read low; only compounds with negative scores are shown here; some inactives read as strong as hits; B-score at 10 µM; 1.1% of 310,000 active;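 active = fluorescence ratio B-score at most minus 3 library SDs, with starting brightness B-score within 2 library SDs, cut at about -5.5 in these data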
# Target sequence (O88943 whole entry, looked up): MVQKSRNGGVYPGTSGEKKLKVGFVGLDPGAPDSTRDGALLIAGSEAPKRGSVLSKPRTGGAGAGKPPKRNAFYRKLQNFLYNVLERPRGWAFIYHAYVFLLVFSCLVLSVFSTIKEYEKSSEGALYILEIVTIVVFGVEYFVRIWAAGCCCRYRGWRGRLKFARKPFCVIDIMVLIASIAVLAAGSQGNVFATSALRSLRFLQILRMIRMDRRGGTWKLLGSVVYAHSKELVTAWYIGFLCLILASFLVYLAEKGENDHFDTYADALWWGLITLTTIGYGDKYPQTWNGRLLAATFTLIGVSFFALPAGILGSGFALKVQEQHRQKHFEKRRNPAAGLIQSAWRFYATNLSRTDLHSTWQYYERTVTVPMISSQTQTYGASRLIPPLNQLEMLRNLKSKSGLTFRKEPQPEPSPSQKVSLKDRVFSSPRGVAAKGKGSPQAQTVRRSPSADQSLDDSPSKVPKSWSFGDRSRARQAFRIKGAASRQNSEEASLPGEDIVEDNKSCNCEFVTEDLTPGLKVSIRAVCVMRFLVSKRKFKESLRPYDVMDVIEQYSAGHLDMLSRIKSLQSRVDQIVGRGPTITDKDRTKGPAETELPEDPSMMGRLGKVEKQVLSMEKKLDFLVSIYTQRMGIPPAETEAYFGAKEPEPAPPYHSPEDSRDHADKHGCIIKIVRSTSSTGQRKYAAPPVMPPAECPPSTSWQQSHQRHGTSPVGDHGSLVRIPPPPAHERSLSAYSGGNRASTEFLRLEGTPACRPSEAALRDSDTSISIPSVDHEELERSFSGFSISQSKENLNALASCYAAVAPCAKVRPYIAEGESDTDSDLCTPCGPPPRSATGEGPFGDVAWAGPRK
# KCNQ2 block baseline = also measured in KCNQ2 block; calls as there; B-score; measured here: initial fluorescence intensity artifact check;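 brightness before thallium and not channel activity; 0 = typical well and far values either way flag optical interference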
# * = called active by the depositor; i = inactive.
SMILES,KCNQ2 block,KCNQ2 block baseline
O=S(=O)(NCC(c1cccnc1)N1CCN(c2ccc(F)cc2)CC1)c1cccs1 (stereo not given),i,-2.6
Cc1ccc(NC(=S)N(Cc2ccco2)C(C)c2cccs2)cc1 (stereo not given),i,1.4
COc1ccc(C(=O)NC2CC2)cc1OC1CCN(Cc2ccccc2F)CC1,i,1.2
COc1ccc(S(=O)(=O)N2CCCCCC2)cc1C(=O)N(C)CC(=O)Nc1cc(C)ccc1C,i,-0.07
COc1cccc(CNC(=O)CCNS(=O)(=O)c2ccc3c(c2)CC(C)N3C(C)=O)c1 (stereo not given),i,1.6
CC(C)=C1C2CCC1C1C(=O)N(NC(=O)c3ccco3)C(=O)C21 (stereo not given),i,-0.99
COC(=O)c1ccccc1NC(=O)CCc1ccccc1,i,-0.97
COC(=O)CCCC1=CC2=C(c3ccccc3)C(=O)C(C)(OC(=O)C3CCCC3)C(=O)C2=CN1Cc1ccc(OC)cc1 (stereo not given),i,-0.02
CC(=O)Nc1ccc(N2CCN(C(C)=O)CC2)cc1,i,1.1
O=C(O)c1cc2nc(-c3ccc(F)cc3)cc(C(F)(F)F)n2n1,i,-0.01
COc1cc(C2c3c(n[nH]c3C)C(=O)N2c2ccc(C)cc2)ccc1O (stereo not given),i,-0.56
COc1ccc(-c2cc(C(=O)OC3CCOC3=O)c3ccccc3n2)cc1OC (stereo not given),i,1.7
O=C(N/N=C/c1coc2ccccc2c1=O)c1cc(Br)ccc1O,i,-0.4
Cc1ccc(S(=O)(=O)n2ccc(-c3cccc(OCc4c(F)cccc4Cl)c3)n2)cc1,i,-0.72
Clc1ccccc1/C=N/c1cc(-c2ccccc2)nn1-c1ccccc1,i,-0.02
CC1CCCC(C)N1C(=O)COc1ccc(C(=O)Nc2ccccc2N2CCOCC2)cc1 (stereo not given),i,0.01
O=C(COC(=O)c1ccc(NS(=O)(=O)c2ccc(F)c(F)c2)cc1)NCC1CCCO1 (stereo not given),i,1.1
Cc1c(/C=N/NC(=O)c2cccnc2)cc(C#N)n1C,i,-0.54
c1ccc2c(c1)ccc1nnc(-c3ccc4c(c3)OCO4)n12,i,-1.5
O=C(O)C(Cc1ccccc1)NC(=O)C(c1ccccc1)c1ccccc1 (stereo not given),i,0.85

# Random excerpt: 7 compounds from above, in no set order.
SMILES,KCNQ2 block,KCNQ2 block baseline
COC(=O)CCCC1=CC2=C(c3ccccc3)C(=O)C(C)(OC(=O)C3CCCC3)C(=O)C2=CN1Cc1ccc(OC)cc1 (stereo not given),i,-0.02
Cc1ccc(NC(=S)N(Cc2ccco2)C(C)c2cccs2)cc1 (stereo not given),i,1.4
COc1ccc(S(=O)(=O)N2CCCCCC2)cc1C(=O)N(C)CC(=O)Nc1cc(C)ccc1C,i,-0.07
CC1CCCC(C)N1C(=O)COc1ccc(C(=O)Nc2ccccc2N2CCOCC2)cc1 (stereo not given),i,0.01
Cc1ccc(S(=O)(=O)n2ccc(-c3cccc(OCc4c(F)cccc4Cl)c3)n2)cc1,i,-0.72
c1ccc2c(c1)ccc1nnc(-c3ccc4c(c3)OCO4)n12,i,-1.5
COc1cc(C2c3c(n[nH]c3C)C(=O)N2c2ccc(C)cc2)ccc1O (stereo not given),i,-0.56

# Carrying on.
SMILES,KCNQ2 block,KCNQ2 block baseline
CCOC(=O)c1cnc(-c2ccccc2)[nH]c1=O,i,0.76
COc1cccc(C2/C(=C(\O)c3ccc4c(c3)OCCO4)C(=O)C(=O)N2CCCn2ccnc2)c1 (stereo not given),i,-0.08
Cc1c(C(Nc2ccccn2)c2ccc(Cl)cc2)c(=O)n(-c2ccccc2)n1C (stereo not given),i,-1.1
O=C1C2C(c3ccccc3)CC=CC2[C@H](c2ccc(C(F)(F)F)cc2)N1Cc1ccccc1 (stereo not given in full),-7.8*,-0.49*
C/C(CC(=O)NC(C)C)=N\NC(=O)C(c1ccccc1)c1ccccc1,i,0.28
O=C(O)C(C(=O)/C=C/c1ccco1)=C1SCCS1,i,-0.38
COc1ccccc1OCCCn1c(=O)sc2ccccc21,i,2.4
CCNC(=S)NNC(=O)c1cccn(Cc2ccc(Cl)cc2)c1=O,i,-1.1
COc1ccc(Cl)cc1N(CC(=O)NC(C)(C)C)S(=O)(=O)c1ccc(C)c([N+](=O)[O-])c1,i,0.28
COc1ccc(C(CC(=O)c2ccccc2)CC(=O)c2ccccc2)cc1OC,i,-0.18
CC(C)OC(=O)c1c(NC(=O)Cn2cnc([N+](=O)[O-])n2)sc2c1CCCC2,i,0.42
Cc1ccc(CNC(=O)CC(C)S(=O)(=O)c2ccc3c(c2)NC(=O)C(C)S3)cc1 (stereo not given),i,0.48
Cc1nn(CC(=O)Nc2ccc(Cl)cc2Cl)c(=O)c2ccccc12,i,0.05
O=S(=O)(Nc1cccnc1Cl)c1ccc2c(c1)OCCO2,i,0.39
Cc1cc2c(cc1C)/C(=N/NC(=O)c1ccccn1)CCC2,i,0.01
O=C(NCC(=O)N1CCCCCC1)c1ccc(OC(F)F)cc1,i,0.68
CC(C)(C)N1C(=O)[C@H]2[C@@H](c3ccc(Br)cc3)N3C(=O)N(c4cccc(Cl)c4)C(=O)[C@@]3(Cc3ccccc3)[C@H]2C1=O,i,-0.19
COc1ccc(/C=N/n2c(C)nc3sc(C)c(C)c3c2=O)cc1,i,1.3
CC(C)CC(=O)Nc1ccc(C(=O)COC(=O)C2CCC2)cc1,i,-0.19
CSc1ncc(C(=O)Nc2cc(C)ccc2C)c(C)n1,i,-0.86
CCCc1nc(N)sc1C(=O)OCC,i,-1.2
Nc1c(C(=O)c2ccc(F)cc2)oc2ccccc12,i,-0.6
CCOC(=O)c1cc(-c2ccccc2)sc1NC(=O)C(C)(C)C,i,0.29
CCOc1ccc(N=c2cc(-c3ccc(OC)cc3)oc3ccccc23)cc1,i,-0.48
COc1ccc(-c2cc3c(=O)n(CC(=O)NCc4ccc(C)cc4)ncn3n2)cc1,i,0.8
Fc1ccc(NC(=S)Nc2ccc(F)c(Cl)c2)cc1Cl,i,2.9
Cc1ccc(NC(NC(=O)c2ccccc2[N+](=O)[O-])C(Cl)(Cl)Cl)cc1 (stereo not given),i,0.83
CCc1ccc(NC(=O)CSc2nnc(CC)c(CC)n2)cc1,i,2.4
OCC1CCCCN1C(=S)Nc1cccc(Cl)c1 (stereo not given),i,1.6
Cc1cc(C)c(C(=O)COC(=O)CNC(=O)c2ccccc2C)c(C)c1,i,0.84
CC(C(=O)NN)n1nnc(N2CCOCC2)n1 (stereo not given),i,0.39
CN(CCCC(=O)NCCc1ccccc1)S(=O)(=O)c1ccc([N+](=O)[O-])cc1,i,0.99
CC1(C)C2([N+](=O)[O-])CN3CC1([N+](=O)[O-])CN(C2)C3c1ccc(O)c(O)c1 (stereo not given),i,0.46
CCOC(=O)c1ccc(NC(=O)c2nn(C)cc2Br)cc1,i,2.1
COc1ccc(Cc2nc(-c3ccccn3)no2)cc1,i,0.07
COc1ccc(Oc2ncnc3sccc23)cc1,i,0.35
O=C(c1ccco1)N1CCN(C(=O)C2CCCc3c2[nH]c2ccc(Cl)cc32)CC1 (stereo not given),i,-0.8
CCC(Oc1ccccc1)C(=O)Nc1ccsc1C(=O)OC (stereo not given),i,-1.8
COc1ccc(Cn2cnc3c(NS(C)(=O)=O)c(C)c(C)cc32)cc1,i,-1.5
CCC1Oc2nc(SC)nnc2-c2ccccc2N1C(=O)c1ccccc1 (stereo not given),i,-0.27
COc1ccc(CCNC(=S)NCc2ccc(Cl)c(Cl)c2)cc1OC,i,0.72
CC(C)Oc1cccc(-c2cc(C(=O)NN3CCOCC3)c3ccccc3n2)c1,i,0.35
Cc1ccc(Nc2nc(N)nc(CSC(=S)N3CCOCC3)n2)cc1,i,0.26
O=C(c1cn(-c2ccccc2)nc1-c1ccc(Cl)cc1)N1CCOCC1,i,-1.4
Cc1nc2cc(C(=O)OCC(=O)NC(C)C(C)C)ccc2n1-c1ccccc1 (stereo not given),i,1.5
O=S(=O)(c1ccccc1)N1CCN(C(=S)NCc2ccccc2)CC1,i,-0.69
O=C(C1CN(S(=O)(=O)c2ccccc2)CCN1S(=O)(=O)c1ccccc1)N1CCCCCC1 (stereo not given),i,-0.06
COc1ccccc1C(=O)n1nc(-c2ccccc2)nc1N,i,0.86
COc1ccc(NC(=O)c2ccc(-n3nc(C)c[n+]3[O-])cc2)cc1,i,-2.9
C=CC[C@H]1CC(Cc2ccccc2)=C[C@H](CC=C)N1,i,0.51
COC(=O)CCC(=O)N1CCCC(CO)(Cc2ccccc2F)C1 (stereo not given),i,2
COc1ccc(CC(C)N2CCN(c3cccc(C(F)(F)F)c3)CC2)cc1OC (stereo not given),i,-0.03
CCC1CCCCN1CCCNC(=O)c1ccc2c(c1)N(Cc1ccc(F)cc1)C(=O)c1ccccc1S2=O (stereo not given),i,1.3
CC1(C)Oc2ccc3ccc(=O)oc3c2/C(=C/NCCN/C=C2\C(=O)C(C)(C)Oc3ccc4ccc(=O)oc4c32)C1=O,i,0.25
Cc1cccc(Cl)c1OCCCCn1ccnc1,i,-1.3
COc1ccc(Cn2c(O)c(C=Nc3ccc(O)cc3)c3ccccc3c2=O)cc1,i,0.63
O=C(Nc1cccc(Cl)c1)c1ccc(S(=O)(=O)NCC2CCCO2)cc1 (stereo not given),i,2.4
O=c1c2cc(Cl)cc(Cl)c2nc2n1CCC2,i,-0.02
O=C(/C=C/c1ccc(Br)o1)NC(c1ccccc1)c1ccccc1,i,-0.47
O=C(COC(=O)c1cn(-c2ccccc2)nc1-c1ccccc1)Nc1ncc(Cl)cc1Cl,i,0.65

# Other compounds follow:
SMILES,KCNQ2 block,KCNQ2 block baseline
Nc1nn(-c2cccc(F)n2)cc1-c1ccccc1,i,-1.1
O=C(c1ccc(OCCN2CCCCC2)cc1)c1c(-c2ccc(O)cc2)sc2cc(O)ccc12,-6*,-0.41*
Cc1cccc(-n2c(C)cc(/C=N\NC(=O)c3ccco3)c2C)c1,i,0.01
CCN(CC)S(=O)(=O)c1ccc2c(c1)nc(CCC(=O)Nc1ccc3c(c1)OCO3)n2CC,i,-1.3
Cc1cc(C)c2c(CN3CCN(Cc4ccc5c(c4)OCO5)CC3)cc(=O)oc2c1,i,0.95
CC1(C)CC(=O)C(/C=N/c2ncccc2C(=O)O)=C(O)C1,i,1.6
OC(COc1ccc(F)cc1Cl)CN1CCc2ccccc2C1 (stereo not given),i,-0.8
Cc1cccc(NC(=O)c2ccc(S(=O)(=O)N(C)C)cc2)n1,i,-0.04
COC(=O)c1ccc(CSc2nc(-c3ccco3)cc(C(F)(F)F)n2)o1,i,-1.2
COc1ccc(N2C(=O)CC(NNC(=O)c3ccco3)C2=O)cc1 (stereo not given),i,0.67
Cc1ccc(C(=O)O/N=C2\CC3CCC2(C)C3(C)C)cc1 (stereo not given),i,-1
COc1cccc(N2CCN(C3CC(=O)N(c4cccc(Cl)c4)C3=O)CC2)c1 (stereo not given),i,-0.04
O=C(Cc1ccccc1[N+](=O)[O-])N1CCc2ccccc2C1,i,1.6
COC(=O)c1c(NC(=O)CCCC(=O)O)sc2c1CCC2,i,1.5
CC1(C)Cc2c(sc(NC(=O)C(=O)NCC3CCCO3)c2C(N)=O)CO1 (stereo not given),i,0.58
Cc1cccc(C(=O)NC(=S)Nc2ccc(S(=O)(=O)N3CCN(C)CC3)cc2)c1,i,1.9
S=c1[nH]nc(C23CC4CC(CC(C4)C2)C3)n1Cc1ccco1,i,0.79
CCC(C(=O)NC(C)CCc1ccco1)n1nc(C)n2c(cc3occc32)c1=O (stereo not given),i,-0.93
Cc1ccc(C)c(N(CC(=O)NC2CCCC2)C(=O)c2cc3cc4cc(C)ccc4nc3s2)c1,i,-0.77
Cc1cccc(C)c1NC(=O)CCCN1C(=O)C(c2ccccc2)Oc2cccnc21 (stereo not given),i,1.4

# Next part, overlapping the part above by 5 compounds.
SMILES,KCNQ2 block,KCNQ2 block baseline
Cc1cccc(C(=O)NC(=S)Nc2ccc(S(=O)(=O)N3CCN(C)CC3)cc2)c1,i,1.9
S=c1[nH]nc(C23CC4CC(CC(C4)C2)C3)n1Cc1ccco1,i,0.79
CCC(C(=O)NC(C)CCc1ccco1)n1nc(C)n2c(cc3occc32)c1=O (stereo not given),i,-0.93
Cc1ccc(C)c(N(CC(=O)NC2CCCC2)C(=O)c2cc3cc4cc(C)ccc4nc3s2)c1,i,-0.77
Cc1cccc(C)c1NC(=O)CCCN1C(=O)C(c2ccccc2)Oc2cccnc21 (stereo not given),i,1.4
COc1ccc(CC(=O)NC(CC(=O)O)c2ccc(OC)cc2)cc1 (stereo not given),i,0.48
CN(C)c1ncc(S(=O)(=O)c2ccccc2)c(-c2ccc(Cl)cc2Cl)n1,i,-0.07
CCOC(=O)C1CCCN(C(=O)/C=C/c2ccc(Cl)cc2)C1 (stereo not given),i,-0.01
COc1ccc(Nc2ncnc3sc(C)cc23)c(OC)c1,i,-1.3
CCn1cc(C(=O)NCCCN2CCCC(C)C2)c(=O)c2cc(S(=O)(=O)N(C)C3CCCCC3)ccc21 (stereo not given),i,-1.7
CCn1c(CNC(=O)c2ccccc2F)cc2cc(C)ccc21,i,2
COc1ccc(NC(=O)Nc2nnc(-c3ccccc3SCc3ccccc3)s2)cc1,i,0.67
N#CCC(=O)NNC(=S)NC(=O)C(c1ccccc1)c1ccccc1,i,0.1
COCCOC(=O)C1=C(C)NC(=O)NC1c1ccco1 (stereo not given),i,-2
CCOC(=O)c1cc[nH]c1C,i,-0.07
COc1cccc(-c2nc(NCc3cccnc3)c3ccccc3n2)c1O,i,1.1
O=C(NCCCN1CCCCCC1)C1CCCN(S(=O)(=O)c2cccc3nsnc23)C1 (stereo not given),i,2.5
O/N=C(/c1ccccc1)c1cc2cc(Br)cc(Br)c2o1,i,-0.29

# Not all compounds are listed; the hit share may differ from the screen's.
